# Assay outcomes (PubChem)
# Vaccinia inh – blocks a specific stage of Vaccinia orthopoxvirus infection; Vaccinia-infected cells, mCherry/Venus stage reporter fluorescence; stronger effect = lower value; some inactives read as strong as hits; AID 1053133; hit rate 0.01% among 89,000; activity change (mCherry), % (no concentration beside the values);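 active = mCherry past -33% and 40 or more points under the early reporter, replicates agreeing; inconclusive = past -33% without that gap or agreement; tested in A549 cells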;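 also: scaled between vehicle wells and reference inhibitor wells; 23 nL library stock went into each well; one replicate is shown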
# Vaccinia inh Venus – further read-out of Vaccinia inh, marked with its call; activity change (Venus), %; measured here: Venus reporter, other viral stage;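 negative = less Venus signal; first of two replicates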
# * = called active by the depositor; ? = inconclusive; nt = no result given; & = joins results of further samples. Only part of the results is shown (hit frequency here may not be typical).
molecule	Vaccinia inh	Vaccinia inh Venus
C[C@H](CO)N1C[C@H](C)[C@H](CN(C)Cc2ccccc2)OCCCC[C@H](C)Oc2ccc(NC(=O)Nc3cccc4ccccc34)cc2C1=O	-33	-22
O=C(C[C@H]1CC[C@@H]2[C@H](COC[C@H](O)CN2S(=O)(=O)c2ccccc2)O1)Nc1ccccc1	11	20
COc1ccc(C#Cc2cnc3c(c2)C(=O)N([C@H](C)CO)C[C@H](C)[C@@H](CN(C)C)O3)cc1	-10	-9
C[C@H](CO)N1C[C@H](C)[C@H](CN(C)Cc2ccc(Oc3ccccc3)cc2)Oc2c(NC(=O)c3ccncc3)cccc2C1=O	0	-1
COc1ccc(NC(=O)N(C)C[C@H]2Oc3c(NS(=O)(=O)c4c(C)noc4C)cccc3C(=O)N([C@H](C)CO)C[C@H]2C)cc1	4	3
C[C@@H]1CN([C@@H](C)CO)C(=O)c2cc(NC(=O)Cn3cnnn3)ccc2O[C@H]1CN(C)C(=O)Nc1ccc2c(c1)OCO2	17	4
O=C(Cc1ccncc1)NCC[C@@H]1CC[C@@H](NC(=O)C2CCCCC2)[C@H](CO)O1	11	7
O=C(OC[C@@H]1[C@H]2c3ccccc3OC1(CO)N=C1SCC(=O)N12)c1ccccc1	3	-7
O=C(Nc1ccccc1F)N1CC2(C1)[C@@H](c1ccccc1)[C@@H](CO)N2C(=O)CC1CC1	2	10
COc1ccc(CN(C)C[C@@H]2OCCCC[C@H](C)Oc3ccc(NC(=O)C4CCCCC4)cc3C(=O)N([C@@H](C)CO)C[C@H]2C)cc1	?	nt
CCN1[C@@H]2c3ccc(C4=CCCCC4)c(=O)n3C[C@H]1[C@H](CO)[C@H]2C(=O)NCCc1ccncc1	11	10
CN1C(=O)c2cc(NC(=O)c3cccs3)ccc2OC[C@H]2O[C@H](CC(=O)N3CCCCC3)CC[C@H]21	0	1
C/C=C/c1ccccc1[C@@H]1[C@@H](C#N)N(C(=O)c2cccnc2)[C@@H]1CO	4	11
CCCNC(=O)N(C)C[C@@H]1Oc2ncc(-c3ccncc3)cc2C(=O)N([C@@H](C)CO)C[C@@H]1C	11	1
Cc1noc(C)c1NC(=O)Nc1ccc2c(c1)C(=O)N([C@@H](C)CO)C[C@H](C)[C@H](CN(C)Cc1ccc(C(=O)Nc3ccccc3N)cc1)O2	26	5
Cc1noc(C)c1S(=O)(=O)Nc1cccc2c1O[C@H](CN(C)S(=O)(=O)c1ccccc1)[C@H](C)CN([C@H](C)CO)C2=O	13	20
O=C(NC[C@H]1[C@H](c2ccccc2)[C@@H](CO)N1CC1CC1)C1CC1	16	18
C[C@H](CO)N1C[C@H](C)[C@H](CN(C)C(=O)C2CCCCC2)Oc2ncc(C#CCc3ccccc3)cc2C1=O	-4	-7
C[C@@H]1CN([C@@H](C)CO)S(=O)(=O)c2ccc(C#CC3(O)CCCC3)cc2O[C@@H]1CN(C)C(=O)Cc1ccncc1	-6	4
C[C@H]1CCCCO[C@@H](CN(C)Cc2ccc3c(c2)OCO3)[C@@H](C)CN([C@@H](C)CO)C(=O)c2cc(NS(=O)(=O)c3ccc(F)cc3)ccc2O1	?	nt

# The closing five entries of the part above come first, to join the parts:
molecule	Vaccinia inh	Vaccinia inh Venus
Cc1noc(C)c1S(=O)(=O)Nc1cccc2c1O[C@H](CN(C)S(=O)(=O)c1ccccc1)[C@H](C)CN([C@H](C)CO)C2=O	13	20
O=C(NC[C@H]1[C@H](c2ccccc2)[C@@H](CO)N1CC1CC1)C1CC1	16	18
C[C@H](CO)N1C[C@H](C)[C@H](CN(C)C(=O)C2CCCCC2)Oc2ncc(C#CCc3ccccc3)cc2C1=O	-4	-7
C[C@@H]1CN([C@@H](C)CO)S(=O)(=O)c2ccc(C#CC3(O)CCCC3)cc2O[C@@H]1CN(C)C(=O)Cc1ccncc1	-6	4
C[C@H]1CCCCO[C@@H](CN(C)Cc2ccc3c(c2)OCO3)[C@@H](C)CN([C@@H](C)CO)C(=O)c2cc(NS(=O)(=O)c3ccc(F)cc3)ccc2O1	?	nt
C[C@H](CO)N1C[C@H](C)[C@@H](CN(C)C)Oc2ncc(-c3cccnc3)cc2C1=O	17	10
O=C(C[C@H]1CC[C@H]2[C@@H](COC[C@@H](O)CN2Cc2ccncc2)O1)NCc1ccncc1	18	8
COc1ccc(S(=O)(=O)N(C)C[C@H]2OCCCC[C@H](C)Oc3ccc(NC(=O)Nc4ccc(F)cc4)cc3C(=O)N([C@@H](C)CO)C[C@H]2C)cc1	8	10
CCS(=O)(=O)N1CC2(C1)[C@@H](c1ccccc1)[C@@H](CO)N2Cc1ccccn1	-2	2
COCC(=O)Nc1ccc2c(c1)[C@H]1C[C@H](CC(=O)NCc3ccccc3OC)O[C@@H](CO)[C@H]1O2	-2	3
C[C@@H]1CN([C@@H](C)CO)C(=O)Cc2cc(NC(=O)CCN3CCOCC3)ccc2O[C@H]1CN(C)Cc1ccccc1	-3	-4
C[C@H](CO)N1C[C@H](C)[C@@H](CN(C)S(=O)(=O)c2ccccc2F)Oc2ncc(C#Cc3cccnc3)cc2C1=O	-14&-26	-11&-22
O=C(C1CCCC1)N1CC2(C1)[C@H](c1ccccc1)[C@H](CO)N2Cc1nccs1	6	12
CO[C@@H]1CN(C)C(=O)c2ccc(NC(=O)C3CCCCC3)cc2OC[C@@H](C)N(C(=O)c2ccccc2)C[C@H]1C	8	2
COc1cccc(S(=O)(=O)N2C[C@@H](O)COC[C@H]3O[C@H](CC(=O)N4CCN(c5ccccc5)CC4)CC[C@@H]32)c1	-15	-4
Cc1noc(C)c1S(=O)(=O)Nc1ccc2c(c1)C(=O)N([C@@H](C)CO)C[C@H](C)[C@H](CN(C)Cc1ccc(C(=O)O)cc1)OCCCC[C@H](C)O2	8	5
CN1C(=O)c2cc(NS(C)(=O)=O)ccc2OC[C@H]2O[C@@H](CC(=O)O)CC[C@@H]21	10	14
CCCNC(=O)C[C@H]1CC[C@@H]2[C@H](COc3ccc(NC(=O)c4cc(C)on4)cc3C(=O)N2C)O1	4	1
COc1ccc2c3c([nH]c2c1)[C@@H](CO)N(C(=O)c1cccc(F)c1)CC31CCN(C(=O)c2ccccc2)CC1	-2	-1
O=C(C[C@H]1CC[C@@H]2[C@H](COC[C@@H](O)CN2C(=O)Nc2ccc(F)cc2)O1)NC1Cc2ccccc2C1	10	1
CCCN1C[C@@H](C)[C@@H](OC)CN(C)C(=O)c2ccc(NC(=O)c3cnccn3)cc2OC[C@H]1C	6	7
COc1ccc(S(=O)(=O)N(C)C[C@@H]2Oc3ccc(NC(=O)CCC(F)(F)F)cc3C(=O)N([C@@H](C)CO)C[C@@H]2C)cc1	12	1
C[C@@H]1CN([C@@H](C)CO)C(=O)Cc2cc(NC(=O)C3CC3)ccc2O[C@@H]1CN(C)C(=O)Nc1cccc2ccccc12	11	7
COc1ccccc1S(=O)(=O)N(C)C[C@H]1Oc2ncc(-c3ccc(C)cc3)cc2C(=O)N([C@@H](C)CO)C[C@@H]1C	?	nt
COCC(=O)N(C)C[C@H]1Oc2cc(-c3ccc(C#N)cc3)ccc2S(=O)(=O)N([C@H](C)CO)C[C@H]1C	-9	-4

# New compounds follow:
molecule	Vaccinia inh	Vaccinia inh Venus
CN1C(=O)c2cc(NC(=O)C3CCOCC3)ccc2OC[C@@H]2O[C@H](CC(=O)NCC3CCCCC3)CC[C@H]21	16	7
Cc1noc(C)c1NC(=O)Nc1cccc2c1O[C@H](CN(C)CC1CCCCC1)[C@H](C)CN([C@@H](C)CO)C2=O	1	-5
CC(C)NC(=O)N(C)C[C@H]1OCc2ccccc2-c2ccccc2C(=O)N([C@@H](C)CO)C[C@H]1C	?	nt
COc1ccc(NC(=O)N2C[C@@H]3[C@H](c4ccccc42)[C@@H](CO)N3C(=O)C2CCCCC2)cc1	9	5
CC(C)NC(=O)N1CCCCN2[C@H](CO)[C@H](c3ccc(Br)cc3)[C@H]2C1	13	-7
C[C@@H]1CN([C@@H](C)CO)C(=O)c2cccc(NC(=O)C3CCOCC3)c2O[C@@H]1CN(C)S(=O)(=O)c1cn(C)cn1	5	0
C[C@H](CO)N1C[C@H](C)[C@H](CN(C)C(=O)Nc2ccccc2)OCCCC[C@H](C)Oc2ccc(NC(=O)c3ccncc3)cc2C1=O	19	3
CC(=O)N1C[C@H]2[C@@H](c3ccccc31)[C@@H](CO)N2Cc1ccc(Cl)cc1	7	9
COc1ccc(CN(C)C[C@H]2OCCCC[C@H](C)Oc3ccc(NC(=O)Nc4ccc(C(F)(F)F)cc4)cc3C(=O)N([C@H](C)CO)C[C@@H]2C)cc1	?	nt
Cc1ccc(S(=O)(=O)N[C@H]2C=C[C@@H](CC(=O)NCc3ccc(Cl)c(Cl)c3)O[C@H]2CO)cc1	?	nt
COc1ccc(NC(=O)N[C@@H]2CC[C@H](CC(=O)NC3CCC3)O[C@@H]2CO)cc1	-2	1
C[C@H]1CN([C@@H](C)CO)C(=O)c2cccc(NC(=O)CCCCCC(=O)Nc3ccccc3N)c2O[C@@H]1CN(C)C	-7	12
O=C(C[C@@H]1CC[C@@H](NC(=O)c2cccc(F)c2)[C@@H](CO)O1)NCc1ccccc1	9	12
COc1ccc2c3c(n(C)c2c1)[C@@H](CO)N(Cc1ccccc1F)CC31CN(C(=O)C2CCOCC2)C1	15	3
Cc1ccc(S(=O)(=O)Nc2cccc3c2O[C@H](CN(C)C(=O)NC(C)C)[C@@H](C)CN([C@@H](C)CO)C3=O)cc1	27	26
COc1ccc(NC(=O)N[C@@H]2CC[C@@H](CCNC(=O)c3cc(Cl)cc(Cl)c3)O[C@@H]2CO)cc1	-7	2
C[C@H]1CN([C@@H](C)CO)S(=O)(=O)c2ccc(/C=C/c3ccccc3)cc2O[C@@H]1CN(C)Cc1ccc(C(=O)O)cc1	-16	-17
Cc1noc(C)c1NC(=O)Nc1ccc2c(c1)C(=O)N(C)[C@H]1CC[C@@H](CC(=O)NCc3ccc(Cl)cc3)O[C@H]1CO2	-1	6
C[C@H](CO)N1C[C@H](C)[C@@H](CN(C)S(=O)(=O)c2ccc(F)cc2)Oc2ccc(NS(=O)(=O)c3cccs3)cc2C1=O	14	2
C[C@@H]1CN([C@@H](C)CO)C(=O)c2cccc(NC(=O)Nc3ccc4c(c3)OCO4)c2O[C@@H]1CN(C)S(=O)(=O)c1cccs1	16	6

# Additional results:
molecule	Vaccinia inh	Vaccinia inh Venus
C[C@H]1CN([C@@H](C)CO)C(=O)Cc2cc(NS(=O)(=O)c3ccccc3)ccc2O[C@@H]1CN(C)S(C)(=O)=O	7	7
COc1ccc(CN(C)C[C@@H]2Oc3ccc(NS(=O)(=O)c4ccc(Cl)cc4)cc3C(=O)N([C@H](C)CO)C[C@H]2C)cc1	-14	-16
COc1ccccc1S(=O)(=O)N(C)C[C@H]1Oc2cc(/C=C/c3ccccc3)ccc2S(=O)(=O)N([C@@H](C)CO)C[C@H]1C	-23	-17
C[C@@H]1CN([C@H](C)CO)C(=O)c2cccc(NC(=O)Nc3ccc(C(F)(F)F)cc3)c2O[C@H]1CN(C)Cc1ccc(Cl)c(Cl)c1	-34	-31
CO[C@H]1CN(C)C(=O)c2cc(NC(C)=O)ccc2OC[C@H](C)N(C(=O)CC2CC2)C[C@@H]1C	4	1
COCC(=O)N(C)C[C@H]1Oc2ncc(C#Cc3ccncc3)cc2C(=O)N([C@@H](C)CO)C[C@H]1C	14	7
CCCNC(=O)N1C[C@H](O)COC[C@@H]2O[C@H](CC(=O)NCc3ccncn3)CC[C@H]21	-1	-3
Cn1cnc(S(=O)(=O)N2C[C@H](O)COC[C@H]3O[C@@H](CC(=O)NCc4ccc(F)cc4)CC[C@@H]32)c1	-1	-10
COc1ccc(NC(=O)N(C)C[C@@H]2Oc3ncc(C#CCC(C)C)cc3C(=O)N([C@H](C)CO)C[C@H]2C)cc1	-8	-3
COc1ccc(NC(=O)N2CC(=O)N3[C@H](C2)[C@@H](c2ccc(C#CCC4CCCC4)cc2)[C@@H]3CO)cc1	?	nt
COCC(=O)N(C)C[C@H]1Oc2ncc(C3=CCCCC3)cc2C(=O)N([C@H](C)CO)C[C@@H]1C	2	4
COCc1cn(CC[C@H]2CC[C@@H](NC(=O)Nc3ccc(F)cc3)[C@@H](CO)O2)nn1	7	6
O=C(CC1CC1)N1[C@@H](CO)[C@@H](c2ccccc2)C12CN(Cc1cc(F)ccc1F)C2	4	1
COCCOC(=O)N1C(=O)[C@@]2(c3cc(C#CCC(C(=O)OC)C(=O)OC)ccc31)[C@H](c1ccccc1OCCO)N1[C@H](c3ccccc3)[C@H](c3ccccc3)OC(=O)[C@H]1[C@@H]2C(=O)Nc1nc2ccccc2s1	2	9
O=C(C[C@@H]1CC[C@@H]2[C@H](COC[C@H](O)CN2C(=O)c2cccnc2)O1)NCc1ccc(-c2ccccc2)cc1	11	5
CCCC#Cc1ccc2c(c1)O[C@@H](CN(C)Cc1ccccc1)[C@@H](C)CN([C@H](C)CO)S2(=O)=O	-34	-27
O=C(NC1CCC1)[C@@H]1[C@@H](CO)[C@@H]2Cn3c(ccc(-c4ccccc4F)c3=O)[C@@H]2N1Cc1ccncc1	0	5
O=C(C[C@@H]1CC[C@@H]2[C@H](COC[C@H](O)CN2C(=O)Nc2ccccc2)O1)NC1Cc2ccccc2C1	-8	-4
C[C@H]1CN([C@@H](C)CO)S(=O)(=O)c2ccc(C#Cc3ccncc3)cc2O[C@@H]1CN(C)C(=O)C1CCC1	?	nt
C[C@@H]1CN([C@@H](C)CO)C(=O)c2cc(/C=C/c3ccccc3)cnc2O[C@@H]1CN(C)C	-10	-8

# Shown with each value named: part of the list above.
C[C@H](CO)N1C[C@H](C)[C@H](CN(C)Cc2ccccc2)OCCCC[C@H](C)Oc2ccc(NC(=O)Nc3cccc4ccccc34)cc2C1=O
  Vaccinia inh: -33 | Vaccinia inh Venus: -22
O=C(C[C@H]1CC[C@@H]2[C@H](COC[C@H](O)CN2S(=O)(=O)c2ccccc2)O1)Nc1ccccc1
  Vaccinia inh: 11 | Vaccinia inh Venus: 20
